MT1-MMP act inh: blocks activation of human MT1-MMP; P50281; HT1080 RFP-PRO-GFP cells, GFP/RFP ratio fluorescence, overnight; percent of plate control window, DMSO zero; GFP/RFP ratio change, % at 20 µM; hit rate 0.061% among 360,000; AID 651647;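 active means GFP/RFP ratio change of at least 30% with cell ATP level not reduced by more than half and red fluorescence within 50% of control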; further: strong numbers were not always called active
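Assay system: RFP-PRO-GFP reporter HT1080 cells; read-out basis: GFP/RFP fluorescence ratio; benchmarks: DMSO wells and RFP-L50D-GFP cells; doses: 20 µM single dose, 1% DMSO; schedule: overnight cell settling, then overnight compound exposure, 37 °C, 5% CO2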
eIF4H FP inh: inhibitors of RNA binding by human eIF4H; Q15056; hit rate 0.94% among 290,000; inhibition, % at 35 µM; eIF4H fluorescence polarization binding assay;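 active means 50% or more with normal probe brightness, or confirmed in later tests; about a fifth of its hits are not listed in these tables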;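 further: calls also rest on retests at 20 µM and on dose response follow-up; 0% = protein and probe with vehicle and 100% = probe without protein; strong numbers were not always called active; many hits fall short of the cut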
Rce1 inhib: inhibitors of yeast Ras-converting enzyme; Q03530; yeast membranes, quenched prenylated peptide cleavage fluorescence; calls only; hit rate 0.27% among 290,000; AID 2563;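 active means fall in fluorescence gain of 50% or more versus controls, with final raw signal at or below 3038400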;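 further: plate controls were neutral control wells for no effect and wells lacking membranes for full effect; tested at 10 µM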
Target sequence (Q03530 whole entry, looked up): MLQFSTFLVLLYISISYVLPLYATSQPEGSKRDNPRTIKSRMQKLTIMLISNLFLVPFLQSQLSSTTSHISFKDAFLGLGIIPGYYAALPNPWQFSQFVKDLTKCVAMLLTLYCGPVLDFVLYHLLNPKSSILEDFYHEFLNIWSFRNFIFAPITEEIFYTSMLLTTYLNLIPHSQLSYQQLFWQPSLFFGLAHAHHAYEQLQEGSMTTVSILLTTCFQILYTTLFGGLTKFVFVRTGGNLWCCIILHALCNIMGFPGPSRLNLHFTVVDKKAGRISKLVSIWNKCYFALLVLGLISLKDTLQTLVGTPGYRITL
PABP FP inh: PABP-poly(A) binding inhibition | PABP-poly(A) RNA binding, fluorescence polarization | inhibition, % at 35 µM | hit rate 1% among 290,000;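 active means 50% or more with normal probe brightness, or confirmed in later tests; about a fifth of its hits are not listed in these tables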;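 further: calls also rest on retests at 20 µM and on dose response follow-up; controls were probe without protein and protein plus probe with vehicle; some compounds called inactive have numbers as strong as hits; many hits fall short of the cut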
CSC inhib: blocks cancer stem cells | AID 2717 | inhibition, % at 7.5 µM | cancer stem cell-like cells viability, luminescence | hit rate 1.1% among 300,000;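 active means mean at 75% or more and at least half the replicates too; tested in HMLE shEcad cells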;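 further: 0% = median of negative and 100% = median of positive control wells; the first replicate is given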
Env fusion inh: inhibitors of HIV Env-mediated cell fusion; HeLa-JRFL Env/CEM21 cell fusion, luciferase; inhibition, % at 12.3 µM; hit rate 1.1% among 360,000;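 active means mean replicate inhibition score of at least 50 and every replicate individually at or above 50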;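 further: 0% = plate neutral controls and 100% = maraviroc near 300 nM; one replicate is shown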
Yeast UUG start: yeast start codon fidelity modulation | S. cerevisiae UUG-firefly luciferase reporter, luminescence/redox ratio | activity score, % at 18.7 µM | hit rate 0.13% among 350,000;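 active means replicate mean at a twofold rise or more, about +100% in these data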;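 further: firefly luciferase made from a UUG start codon reports start codon fidelity; reporter light over untreated wells divided by growth signal over untreated wells; some hits fall short of that in this replicate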
MT1-MMP act inh RFP: also measured in MT1-MMP act inh; calls as there; RFP signal change, %; measured here: RFP expression control read;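 0 = vehicle wells; hits needed this value within 50% of zero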
Numbers without * were called inactive; i = inactive; . = not tested or not shown; & = joins results of further samples; [ ] = remark or other dose.

SMILES,MT1-MMP act inh,MT1-MMP act inh RFP,eIF4H FP inh,Rce1 inhib,PABP FP inh,CSC inhib,Env fusion inh,Yeast UUG start
c1cn2cc(-c3ccc4c(c3)OCO4)nc2s1,8,2,-7,i,20,.,-178,-23
Cc1ccc(C(=O)NNC(=O)C2CCN(Cc3ccc(Cl)c(Cl)c3)CC2)cc1,2,-5,-4,i,-2,-9,.,3
O=C1NC(c2cn(-c3ccccc3)nc2-c2cccs2)C(C(=O)c2cccnc2)C(O)(C(F)(F)F)N1 (stereo not given),-5,-5,-5,i,-11,-1,.,-1
NC(=O)C1CCN(C(=O)CCCCCn2c(=O)[nH]c3ccsc3c2=O)CC1,1,0,0,i,-12,-4,-47,-3
COc1ccc(CN2CCCC2C(=O)Nc2ccc(OC)c(OC)c2)cc1OC (stereo not given),9,13,-15,i,-7,.,.,-13
CC1CN(C(=O)c2ccncc2)CC(C)O1 (stereo not given),.,.,-9,i,17,.,.,.
CC(C)N(C(=O)[C@H]1C[C@H](CC(=O)NCc2ccco2)C(=O)N2CCc3c([nH]c4cc(-c5ccco5)ccc34)[C@]12C)C(C)C,-4,-10,.,.,.,.,-17,-12
NS(=O)(=O)c1cccc(NC(=O)COC(=O)CCc2ccccc2)c1,0,2,0,i,4,9,-39,-11
COc1cc(C(C)=O)ccc1OCC(O)CN1CCN(c2ccc(F)cc2)CC1 (stereo not given),-2,-1,-1,.,-3,-3,-1,-6
Oc1ccc(-c2nccc(-c3ccc(Cl)cc3)n2)cc1,-2,1,1,i,2,-8,-17,.
O=C(C[C@H]1C(=O)N(CCc2ccccc2)C[C@@H]1c1ccccc1)Nc1ccccc1,-1,2,.,.,.,.,-25,-9
CCCCNC(=S)NNc1c(Cl)cc(Cl)cc1Cl,1,-1,-11,i,5,-8,9,-27
CCc1ccc(N2C(=O)CN(Cc3cc(OC)c(OC)c(OC)c3)C2=S)cc1,-1,-11,-3,i,-4,.,27,.
Cc1c(-c2cccs2)[n+](=O)c2c(n1[O-])CCCCC2,0,2,0,i,14,-8,12,-12
N#Cc1ccccc1S(=O)(=O)NC(=O)[C@H]1O[C@@H](n2cnc3c(N)ncnc32)[C@H](O)[C@@H]1O,-4,-3,.,.,.,.,-16,-9
C=CCNC(=O)c1sccc1Oc1ccc(F)cc1[N+](=O)[O-],-5,-3,0,i,6,-12,12,.
CCOc1ccccc1NC(=O)N1CCC(n2nnc3cc(C)ccc32)CC1,-2,-1,-5,i,7,5,-85,-12
O=C(c1cccc2nc3ccccc3nc12)N1CCOCC1,-2,4,-1,i,10,-12,-1,-6
NC(=O)c1nsc(C(=O)N(Cc2cccnc2)C(C(=O)NC2CCCC2)c2ccc(F)cc2)c1N (stereo not given),-1,-1,-8,i,1,-11,11,-6
Cn1c(=O)cc(OCCCC(=O)NCCCN2CCN(Cc3ccccc3)CC2)c2ccccc21,8,8,-1,i,2,-5,-61,-5
[S-]c1nnc(-c2ccc(Br)cc2)n1-c1ccccc1.[Zn+2],0,5,-20,i,-6,-11,2,-5
COc1ccc(-c2nc3cc(C)ccn3c2NC(=O)c2ccccc2OC)cc1,-1,-1,-8,i,0,0,23,-2
CC(O)C(NC(=O)OCc1ccccc1)C(=O)OCc1ccccc1 (stereo not given),-3,1,.,.,.,-7,9,-13
O=C(CN(Cc1ccc(F)cc1)S(=O)(=O)c1ccc(S(=O)(=O)N2CCOCC2)cc1)Nc1ccccc1,-4,1,-8,i,-4,1,8,-23
COc1cc(C(=O)NCCCN2CCCC2=O)cc(OC)c1OC,8,3,-6,i,-10,-8,.,-10
CCc1ccc(-c2csc3nc[nH]c(=O)c23)cc1,7,-8,-5,i,9,-5,0,-19
CN(C)CCCN1CC(=O)N2[C@@H](Cc3c([nH]c4ccccc34)C2(C)C)C1=O,-8,-10,4,i,6,-1,4,-14
COc1ccc(-c2cc(C(F)(F)F)nc(S(=O)(=O)CCC(=O)N3CCOCC3)n2)cc1,-2,-7,-13,i,-10,-11,.,-4
O=C(CN1CCCCCC1)Nc1ccc(Br)cc1[N+](=O)[O-],3,3,1,i,1,.,3,-1
COc1ccc(/C=C/C(=O)OCC(=O)NCCCc2ccccc2)cc1OC,-2,4,.,.,.,-13,.,-5
COc1ccc(C(=O)NNC(=S)NC(=O)c2cccc([N+](=O)[O-])c2)cc1,8,2,.,i,.,12,18,-30
CCN1C(=NCCc2c[nH]c3ccccc23)N[C@@H](c2ccccc2)[C@H](C(=O)OC)[C@H]1C,-5,2,-13,i,29,6,17,-17
CC(C)(O)C#Cc1ccc(C(=O)NCc2ccccc2)s1,4,4,.,i,.,-5,-11,-16
CCOc1ccc(C(=O)NC2CC(C)(C)NC(C)(C)C2)cc1,-1,4,-4,i,-2,-9,8,-2
Cc1cc(C(=O)Nc2c(C)n(C)n(-c3ccccc3)c2=O)c2ccccc2n1,0,5,6,i,-2,4,.,-18
COc1ccc(OCC(=O)NNC(=O)c2cccs2)cc1,0,-1,-3,i,3,-4,-94,23
CCC(CC)n1[nH]c(=O)cc1N,1,-1,-1,i,2,-6,.,-27
Cn1cc(CN2CCCC(C(=O)Nc3ccc(-c4cccc(F)c4)cc3)C2)cn1 (stereo not given),2,1,14,i,-3,24,3,-22
C[C@@H]1CCCCO[C@@H](CN(C)C(=O)CCCN(C)C)[C@@H](C)CN([C@H](C)CO)C(=O)c2cc(N(C)C)ccc2O1,1,6,.,.,.,.,12[16.7 µM],16&0
COc1ccc(-n2nc3cc(C)c(NC(C)=O)cc3n2)cc1,-1,-1,-8,.,3,-7,-90,-20

The final 5 compounds of the section above come first, to join the parts:
SMILES,MT1-MMP act inh,MT1-MMP act inh RFP,eIF4H FP inh,Rce1 inhib,PABP FP inh,CSC inhib,Env fusion inh,Yeast UUG start
COc1ccc(OCC(=O)NNC(=O)c2cccs2)cc1,0,-1,-3,i,3,-4,-94,23
CCC(CC)n1[nH]c(=O)cc1N,1,-1,-1,i,2,-6,.,-27
Cn1cc(CN2CCCC(C(=O)Nc3ccc(-c4cccc(F)c4)cc3)C2)cn1 (stereo not given),2,1,14,i,-3,24,3,-22
C[C@@H]1CCCCO[C@@H](CN(C)C(=O)CCCN(C)C)[C@@H](C)CN([C@H](C)CO)C(=O)c2cc(N(C)C)ccc2O1,1,6,.,.,.,.,12[16.7 µM],16&0
COc1ccc(-n2nc3cc(C)c(NC(C)=O)cc3n2)cc1,-1,-1,-8,.,3,-7,-90,-20
CN(c1ccc(OCC(=O)O)cc1)S(=O)(=O)c1ccc2ccccc2c1,-3,0,8,i,2,-4,5,-4
CC(C)C(=O)NC(c1ccccc1)c1cc([N+](=O)[O-])c2cccnc2c1O (stereo not given),11,7,13,i,11,147*,-16,.
Cc1cc(=O)n2cccc(O)c2n1,9,5,18,i,8,-7,17,.
Cn1c(=O)c2ncn(CC(=O)O)c2n(C)c1=O,-1,3,4,i,0,-5,5,.
CCCCNC(=S)N(C)N=C1CCC(c2ccccc2)CC1 (stereo not given),-1,0,4,i,-7,-7,-19,.
CCOc1ccc(CC(=O)C2=C(N3CCOCC3)CC(C)(C)CC2=O)cc1OCC,-4,0,-8,i,-3,-20,-18,-12
COc1ccccc1N1CCN(C(=O)C(C)NC(=O)c2ccco2)CC1 (stereo not given),0,1,.,.,.,3,.,-7
S=C1SCN(Cc2cccnc2)CN1Cc1ccccc1,-1,0,0,i,-6,.,-2,-25
O=[N+]([O-])c1ccc2cn[nH]c2c1,1,-4,6,i,-2,40,.,-12
CCCc1cc(=O)n2[nH]c(NCc3cccs3)nc2n1,1,3,-8,i,-4,-13,-60,-9
C=CCn1c(CCC(=O)Nc2ccc(C)c(Cl)c2)nnc1SCC(=O)Nc1ccccc1C,-2,-7,-9,i,-10,-18,.,-11
Cc1c(NC(=O)CN2c3cccc4cccc(c34)S2(=O)=O)c(=O)n(-c2ccccc2)n1C,6,7,6,i,-13,-11,16,.
COc1ccc(-n2c(CCc3ccccc3)nnc2SCC(=O)NCc2ccccc2)cc1,0,-3,5,i,0,1,-4,-23
Cc1ccc(C(=O)NC(=S)Nc2ccccc2C(F)(F)F)cc1C,-6,-4,-3,i,0,10,.,-25
CN1C(=O)/C(=N/OC(=O)c2ccccc2Br)c2ccccc21,2,3,-10,i,-6,.,-1,.
CC(=O)CC(=O)Nc1ccc(C(N)=O)cc1,2,-1,8,i,10,-1,-8,.
C=CCN1C(=O)C(Cc2ccccc2Cl)SC1=Nc1ccc(C(=O)O)cc1 (stereo not given),0,3,1,i,4,2,-7,-9
C[C@H](NC(=O)NCc1ccc(F)cc1)C(=O)O,-5,0,5,i,-7,-6,23,.
CN(c1cccc(NC(=O)c2ccc(C(C)(C)C)cc2)c1)S(C)(=O)=O,0,-21,0,i,-5,4,-105,-10
COc1ccccc1CNC(=O)N/C=C/c1ccc(Cl)cc1,-7,-6,9,i,12,-4,5,-15
Cc1ccccc1C(=O)Nc1ccccc1Sc1ccccc1,3,-4,0,i,-16,7,.,-3
O=C(c1ccc(S(=O)(=O)Nc2ccc(F)cc2)cc1)N1CCN(C(=O)c2ccco2)CC1,-5,-20,8,.,-1,1,73*,3
COc1ccc(CCN2CCCC(CN(C)C(=O)c3cc(C)oc3C)C2)cc1 (stereo not given),-3,1,0,i,-14,-1,-72,-5
CN(C)c1ccsc1C(=O)NNS(=O)(=O)c1ccc(Cl)cc1,3,1,.,i,.,16,-33,-12
COc1ccc(/C=C/C(=O)N(CC(C)C)C2CCS(=O)(=O)C2)cc1 (stereo not given),0,7,.,i,.,6,13,-3
CC(C)(C)c1ccc(C(=O)NCC(=O)OCC(=O)Nc2ccccc2[N+](=O)[O-])cc1,3,5,-4,.,-13,1,15,.
COc1cc(/C=C(\C#N)C(=O)NCC2CCCO2)ccc1OCC(N)=O (stereo not given),-8,-2,-7,i,7,-11,4,.
Nc1nc(SCC(=O)Nc2ccc(C(F)(F)F)cc2)[nH]c(=O)c1NC(=O)c1ccc(F)c(F)c1,4,3,2,i,-10,-12,-3,-10
CS(=O)(=O)N1Cc2ccccc2CC1C(=O)OCC(=O)Nc1ccc2ccccc2c1 (stereo not given),-2,1,28,i,-4,-8,-90,-7
COc1cccc(C2C(C#N)=C(N)N(c3ncn[nH]3)C3=C2C(=O)CCC3)c1 (stereo not given),6,9,3,i,-3,-15,-13,.
CCc1cccc(C)c1NC(=S)N1CCCCC1c1cccnc1 (stereo not given),1,3,4,i,14,-12,-26,-19
CC(=O)ON1C(C)(C)Cc2noc(N)c2C1(C)C,5,4,-9,i,-13,-5,.,.
CCCCNc1nc(N)ncc1[N+](=O)[O-],3,0,8,i,2,1,-9,-32
O=C(Nc1ccccc1Cl)C1CCCN(S(=O)(=O)c2ccc(-n3cnnn3)cc2)C1 (stereo not given),1,-4,-2,i,2,-7,-12,-8
Cc1c(C(=O)N2CCOCC2)c(S(=O)(=O)Nc2ccccc2)c(C)n1C,-2,2,6,i,7,-4,0,-18
COc1ccc(C)cc1Cn1c(S(C)(=O)=O)nc2ccccc21,8,-5,-5,i,-13,-4,.,8
CC1CCN(C(=O)COc2ccccc2F)CC1,-3,1,-10,i,-2,.,.,-18
COc1ccc(N2CC(C(=O)N[C@H](C(=O)NC3CCCCC3)C(C)C)CC2=O)cc1 (stereo not given in full),0,1,.,i,.,-18,2,-4
Cc1cc(C)nc(N2CCN(c3nnnn3-c3ccccc3)CC2)n1,4,8,-14,i,7,9,34,-6
